Screening data deposited in PubChem BioAssay by ICCB-Longwood Screening Facility, Harvard Medical School.
Ba CapD inh: Bacillus anthracis CapD inhibitors, primary screen, biochemical, fluorescence intensity | z-score (test concentration not listed) | actives 0.23% (n = 140,000) | CapD gamma-glutamyltranspeptidase (Bacillus anthracis Ames Ancestor) | purified CapD enzyme, fluorescence intensity read-out; hits give low values; some hits fall short of the stated cut;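 active = z-score under -4 in either of two replicates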;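 also: stock transfer was 100 nL into about 40 µL; score is relative to mean and spread of the plate; one replicate is shown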
AID504770: growth inhibition of E. coli YBA685, primary screen, V. cholerae RctB inhibitors; E. coli YBA685 rctB-dependent plasmid, OD600 growth, 3 h; hits give low values; z-score (concentration not given with the values); actives 0.27% (n = 130,000); AID 504770, 2011;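 active = z-score under -2 on both plates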;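 also: wells of about 30 µL received 100 nL stock; score is relative to mean and SD of the test wells; the first replicate is given; strong numbers were not always called active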
Active calls of the source: *; i = inactive; x = no result given.

mol	Ba CapD inh	AID504770
O=C(Nc1ccc2nn(-c3ccccc3)nc2c1)c1cccnc1	1.3	-0.9
COc1ccc(C(N)=O)cc1NC(=O)c1ccc2c(=O)n(Cc3cccc(Br)c3)c(=S)[nH]c2c1	2.04	x
N#CC1(NC(Cc2ccccc2)c2ccccc2)CCCCCC1 (stereo not given)	0.335	-0.4
Cc1nc2c(oc3nc(-c4ccco4)c4c(c32)CC(C)(C)OC4)c(-c2ccc(Br)cc2)c1C(=O)O	0.66	x
Clc1ccc(Sc2cccc(Cl)c2Cn2cccc2)cc1	0.67	0.85
CCOC(=O)c1c(-c2ccc(C)o2)csc1NC(=O)COC(=O)C12CC3CC(CC(O)(C3)C1)C2	x	-0.45
O=C(CCc1nc(-c2ccccc2F)no1)NCCN1CCc2ccccc2C1	0.52	-0.35
Cc1ccc(C)n1-c1ccccc1CNS(=O)(=O)Cc1ccccc1	-0.365	x
COC(=O)c1nn(-c2ccc(OC)cc2)c(=O)c2c(N)sc(C)c12	-0.25	1.05
O=C(Nc1ccc(S(=O)(=O)NCc2ccco2)cc1)c1ncoc1-c1ccc(Cl)cc1	x	-0.1
CCOc1cc2c(cc1OCC)-n1cccc1C(c1cccc(F)c1F)NC2 (stereo not given)	0.875	-0.6
CC1CN(C(=O)c2cccc(S(=O)(=O)N3CCOCC3)c2)C(=NC2CCCCC2)S1 (stereo not given)	x	0
CCOc1ccc(C2C(C(=O)OCCSCC)=C(C)NC3=C2C(=O)CC(c2cccs2)C3)cc1 (stereo not given)	34.7	x
Cn1c(C(=O)Nc2cnc3ccccc3c2)cc2c(=O)n(C)c3ccccc3c21	-3	0.35
COC(=O)C1CN(Cc2ccccc2)CCC1=O (stereo not given)	0.34	0.15
Cc1cc(C)c(C#N)c(SC(C(=O)Nc2c(F)cccc2F)c2ccccc2)n1 (stereo not given)	-0.71	0.55
O=C(CSc1ccc2nnc(-c3cccnc3)n2n1)c1ccccc1	x	0.6
O=C(O)COc1ccc(-c2nnn(Cc3ccc(Cl)cc3Cl)n2)cc1	-0.01	-0.1
COc1ccc(C2C(C#N)=C(C)NC(C)=C2C#N)c(OC)c1	x	-0.65
Cc1ccccc1NC(=S)N(C(C)C)C1CCN(C(C)C)CC1	-0.3	-1.05
COc1cc(C(=O)OC(C)C(=O)N2CCC(C)CC2)cc(CN2C(=O)c3ccccc3C2=O)c1OC (stereo not given)	x	-1.75
CCN(Cc1ccccc1)C(=O)c1ccc(C)cc1	0.59	0.35
COc1ccc(C2C3C(=O)NC(=O)C3ON2c2ccccc2)cc1 (stereo not given)	-0.325	-0.4
CC1Cc2ccccc2N1S(=O)(=O)c1cc(Br)cnc1N (stereo not given)	0.23	0.2
CO/N=C(\C(=O)Sc1nc2ccccc2s1)c1csc(N)n1	-0.145	-1.35
Cc1ccc2onc(CNC(=O)NCCCN3CCOCC3)c2c1	-0.055	-0.2
Cc1ccc(C)c(N2C(=O)C3C4c5ccccc5C(CO)(c5ccccc54)C3C2=O)c1 (stereo not given)	0.085	x
COc1ccc(C(=O)CSc2n[nH]c(=O)n2-c2ccccc2)cc1	-1.06	0.25
FC(F)(F)c1cc(Cl)c2nsnc2c1	-0.29	x
O=C(NCCO)C1=NN=CC1	0.005	-0.65
O=C(/C=C/c1ccco1)NC12CC3CC(CC(C3)C1)C2	x	0.15
CN(C(=O)COC(=O)c1ccc(C#N)cc1)C1CCCCC1	0.42	-0.1
Cc1ccc(O)c(C2=Nc3ccccc3C2(C)C)c1	-1.2	0.1
COC(=O)CC1=NN(c2nc3ccccc3[nH]2)C(=O)C1	0.45	0.2
CCCCCC1C(=O)CCC1CC(=O)OC (stereo not given)	-0.475	-0.45
CCS(=O)(=O)c1ccc(C(=O)Nc2cccc(Cl)c2)c(Cl)c1Cl	-1.17	x
O=C(NCCC1=CCCCC1)C1CCN(c2nc3ccccc3[nH]2)CC1	0.855	0.55
Cc1cc(NC(=O)CSCc2ccccc2)no1	-0.69	-1.3
Cc1ccsc1/C=N/NC(=O)Cc1cc(=O)[nH][nH]1	-1.13	-1
Cc1ccc(Nc2nnc(SCc3nc4sc(C(=O)O)c(C)c4c(=O)[nH]3)s2)cc1C	x	-0.35
CCc1nnc(NC(=O)c2cc3ccccc3cc2OC)s1	i	-0.6
CN(C)/C(=N\O)c1nonc1N	x	0.05
COc1ccc(C(=O)CN2C=NS(=O)(=O)c3ccccc32)cc1	0.04	0.45
Cc1cccc(OCCn2cc(/C=N/n3cnnc3)c3ccccc32)c1	-0.245	-0.8
CCS(=O)CC(=O)Nc1c(-c2ccccc2)oc2ccccc2c1=O (stereo not given)	-0.53	-0.2
Cc1ccc(CNC(=O)c2oc3ccc(C)cc3c2C)cc1	x	-0.35
COc1ccccc1OCCSc1nc2ccccc2o1	-0.185	-0.2
CCOC(=O)c1cc(-c2ccccc2)nnc1Sc1ccc(Cl)cc1	0.455	x
CC(C)N1CCN(C(=O)c2ccco2)CC1	-0.125	-0.65
CCOC(=O)C1=c2s/c(=C\c3ccccc3F)c(=O)n2C(N)=C(C(=O)OC)C1c1ccccc1F (stereo not given)	1.31	x
Cc1cccc(CCOC(=O)NC2CCCC2OCc2ccccc2)c1 (stereo not given)	-0.675	x
CCOC(=O)/C=C1\SCC(=O)N1CC(O)c1ccccc1 (stereo not given)	x	-1
COc1cc(C)nc(NC(=O)Nc2cccc(Cl)c2)n1	0.03	-0.4
Cc1ccc2nc(SC(C)C(=O)O)[nH]c2c1 (stereo not given)	x	0.5
CC(OC(=O)c1cccc(Cl)c1)c1ccc[n+](C)c1 (stereo not given)	1.17	-0.6
N#C/C(=C\NC1CCN(Cc2ccccc2)CC1)S(=O)(=O)c1ccc(Cl)cc1	0.065	0.95

(cont.)
mol	Ba CapD inh	AID504770
CSc1ccccc1C(=O)NCC(C)C	0.06	0.15
CCOc1ccccc1NC(=O)C(CC)Sc1nc2ccccc2c(=O)n1C1CC1 (stereo not given)	0.29	0.9
O=C(NCc1ccco1)C(c1ccccc1)N(CCc1ccccc1)C(=O)Cn1nnc2ccccc21 (stereo not given)	x	2.3
Cc1cc(=O)[nH]c(SCC(=O)c2ccc3c(c2)NC(=O)CO3)n1	x	-0.35
COc1ccccc1NC(=S)NCc1ccncc1	-0.325	x
O=C(Nc1ccccc1SCCS(=O)(=O)c1ccc(Cl)cc1)c1ccccc1Cl	-0.105	-0.35
CC(=O)N/C(=C\c1cccs1)C(=O)O	43.1	-0.6
COc1ccc(NCN2C(=O)C3C4c5ccccc5C(c5ccccc54)C3C2=O)cc1 (stereo not given)	-0.025	x
O=C(NC1CC1)C1C2C=CC3(CN(Cc4ccccc4Cl)C(=O)C13)O2 (stereo not given)	-0.845	x
CC(C)CN(CC(C)C)S(=O)(=O)c1ccc(C(=O)Nc2nnc(-c3cccs3)o2)cc1	-2.67	x
Cc1ccsc1Cn1nccc1NC(=O)C1CC(=O)N(c2ccc3c(c2)OCCO3)C1 (stereo not given)	x	0.1
CCCCn1c(SCC(=O)NC2CCCC2)nc2c(sc3ccccc32)c1=O	-1.25	-0.4
CCOP(=O)(OCC)c1nc(-c2ccc(C)cc2)oc1NCc1ccco1	27.9	x
Cc1cc(=O)[nH]c(O)c1C(=O)O	x	0.7
CCOc1ncnc2sc(-c3ccccc3)cc12	0.95	0.05
O=C(NCc1ccco1)/C(=C/c1ccc([N+](=O)[O-])cc1)NC(=O)c1ccccc1	-0.455	x
COc1ccc(CCN=C2SCCN2C(=O)c2ccc(C#N)cc2)cc1	x	-0.4
CN(C1CCCCC1)S(=O)(=O)c1ccc(CNC(=O)c2ccccc2)s1	0.585	-0.15
Cc1ccc2nc(Cc3ccc(N)cc3)oc2c1	-0.465	-0.7
COc1ccc(Cn2c3nc(C#N)c(C#N)nc3c3c(=O)[nH]c(C)nc32)cc1	x	1.15
CSC(=NCc1cccnc1)NC#N	-3.01	x
CC1CCN(C(=O)CCC(=O)c2ccc3c(c2)OCCCO3)CC1	x	-0.2
CCOc1ccc2c(c1)c1nnc(SCC3CCCO3)nc1n2C (stereo not given)	x	0.25
Cc1cc(C)cc(N(CC(=O)NCc2ccco2)C(=O)c2snc(C(N)=O)c2N)c1	x	0.25
CN(C)S(=O)(=O)c1ccc(=O)n(CC(=O)c2c[nH]c3ccccc23)c1	x	-0.2
Cc1cc(Nc2ccc(F)cc2F)nc(N)n1	0.885	x
CN(CC(=O)N1CCOCC1)c1ncnc2scc(-c3ccc(F)cc3)c12	x	-0.3
O=C1O[C@@H]2C[C@H]3C[C@@H]2[C@@H]1[C@H]3C(=O)N1CCCc2ccccc21	0.3	-0.6
O=C(CSCC(=O)Nc1ccccc1F)Nc1ccc2ccccc2c1	0.075	-0.1
CSc1cccc(NC(C)C(=O)NCc2ccccc2)c1 (stereo not given)	x	1.4
COc1cccc(NC(=O)C(Sc2nnc(-c3ccccc3)o2)c2ccccc2)c1 (stereo not given)	x	-0.7
CC(=O)NC(=S)N[C@@H]1O[C@H](COC(C)=O)[C@@H](OC(C)=O)[C@H](OC(C)=O)[C@H]1OC(C)=O	-0.3	-1.25

By substructure: the entries above containing bromine.
mol	Ba CapD inh	AID504770
COc1ccc(C(N)=O)cc1NC(=O)c1ccc2c(=O)n(Cc3cccc(Br)c3)c(=S)[nH]c2c1	2.04	x
Cc1nc2c(oc3nc(-c4ccco4)c4c(c32)CC(C)(C)OC4)c(-c2ccc(Br)cc2)c1C(=O)O	0.66	x
CC1Cc2ccccc2N1S(=O)(=O)c1cc(Br)cnc1N (stereo not given)	0.23	0.2

Next structures
mol	Ba CapD inh	AID504770
O=C(Nc1cc(Oc2ccc(F)cc2)cc([N+](=O)[O-])c1)c1sc2ccccc2c1Cl	-0.17	x
CN(C)CCN(Cc1ccc(Cl)cc1)c1ccccn1	1.52	x
Cc1ccc(Cn2c(C)cc(C)c(C#N)c2=O)cc1	28.8	0.15
CCOC(=O)C1CCN(S(=O)(=O)c2c(C)n(C)c(=O)n(C)c2=O)CC1	-0.215	0.95
COc1ccc(NC(=O)c2ccc3snnc3c2)cc1	-0.375	-0.45
CCc1ccc(NC(=O)CCC(=O)c2ccccc2)cc1	-0.965	-0.8
COc1cc(OC)cc(C(=O)Nc2ccc(CN3CCCCC3)cc2)c1	-0.27	-0.05
CCN1C/C(=C\c2ccc(OC)cc2)C(=O)/C(=C/c2ccc(OC)cc2)C1	-1.3	0.1
O=C(O)c1c(Cl)c(Cl)c(Cl)c(Cl)c1C(=O)N1CCCC1	x	-0.15
COc1ccc(CNCC2CCCO2)cc1 (stereo not given)	0.3	-0.4
O=C(CC1SC(=O)NC1=O)Nc1ccc(F)cc1 (stereo not given)	x	0.25
COc1ccccc1C1CC(=O)Nc2sc3c(C)c(C#N)c(N)nc3c21 (stereo not given)	x	0
COc1ccccc1NC(=O)Cn1cnc2sc(C(=O)Nc3nnc(C)s3)c(C)c2c1=O	-0.025	x
Cc1c(C(=O)Nc2cc(Cl)ccc2-n2cncn2)[nH]c2c1C(=O)CC(C)(C)C2	x	1.25
CC(Oc1ccc(F)cc1)C(=O)NCCN1CCOCC1 (stereo not given)	-0.19	-1.2
O=C(c1ccco1)N(c1ccccc1)c1ccccc1	0.385	0.4

Record cards, from the list above:
Shown for `CN(C)/C(=N\O)c1nonc1N` : Ba CapD inh = x; AID504770 = 0.05
Shown for `CCN(Cc1ccccc1)C(=O)c1ccc(C)cc1` : Ba CapD inh = 0.59; AID504770 = 0.35

(cont.)
mol	Ba CapD inh	AID504770
O=C(N/N=C/c1cccc([N+](=O)[O-])c1)c1ccc([N+](=O)[O-])o1	-0.755	x
Cc1ccc(S(=O)(=O)Nc2ccc3oc4c(c3c2)CC(C(C)(C)C)CC4)cc1 (stereo not given)	0.27	x
O=C(CSc1nnc(-c2cccc(Cl)c2)o1)NC1CCCCC1	-0.35	0.5
COC(Cn1c(-c2ccccc2)cc(C2=C(O)CC(C)(C)CC2=O)c1-c1ccccc1)OC	32.8	-1.1
Cc1cccc(-n2c(C)cc(C=NO)c2C)c1	0.91	-0.35
COCC(C)NCc1cccc2ccccc12 (stereo not given)	0.165	1.35
COc1cccc(C2NC(=S)NC(C)=C2C(=O)Nc2ccc(Cl)cc2)c1OC (stereo not given)	0.035	x
Cc1c(O)c2cnn(-c3ccccc3)c2[nH]c1=O	0.21	0.05
CC(=O)Nc1ccc(NC(=O)C(C)OC(=O)c2c3c(nc4ccccc24)CCN(C)C3)cc1 (stereo not given)	x	0.25
CC(=O)N1CCC(N(C2CC2)S(=O)(=O)c2ccc(NS(=O)(=O)c3ccccc3)cc2)CC1	0.06	x
Cc1ccc(C(=O)CN2C(=O)c3ccccc3S2(=O)=O)cc1	-0.515	0.1
CC(=O)Nc1ccc(C2Nc3ccccc3C(=O)N2C2CCCCC2)cc1 (stereo not given)	78.2	-0.45
O=C(c1ccco1)n1c(=S)nc2ccccn21	0.705	0
O=S(=O)(NCc1ccccc1Cl)c1ccc2nc(-c3ccccc3)[nH]c2c1	-0.16	0.1
